Rango complex inh = prevents formation of the Rango-importin beta complex; Q14974; Rango CFP/YFP FRET sensor + importin beta, 45 min; Potency, µM (titrated, usually from 92.2 µM), for inactives: at the top dose inhibition of complex formation; hit rate 0.031% among 340,000; active = rising FRET ratio curve, often small or poorly fitted; inconclusive = mostly compound fluorescence or quenching in the first reads; inactive = flat curves in all reads;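 also: potency is read from the fitted curve at half-maximal effect; 0% = DMSO wells and 100% = buffer wells lacking importin beta; nearly all actives have a fitted effect of over 15% in size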
Target sequence (Q14974 whole entry, looked up): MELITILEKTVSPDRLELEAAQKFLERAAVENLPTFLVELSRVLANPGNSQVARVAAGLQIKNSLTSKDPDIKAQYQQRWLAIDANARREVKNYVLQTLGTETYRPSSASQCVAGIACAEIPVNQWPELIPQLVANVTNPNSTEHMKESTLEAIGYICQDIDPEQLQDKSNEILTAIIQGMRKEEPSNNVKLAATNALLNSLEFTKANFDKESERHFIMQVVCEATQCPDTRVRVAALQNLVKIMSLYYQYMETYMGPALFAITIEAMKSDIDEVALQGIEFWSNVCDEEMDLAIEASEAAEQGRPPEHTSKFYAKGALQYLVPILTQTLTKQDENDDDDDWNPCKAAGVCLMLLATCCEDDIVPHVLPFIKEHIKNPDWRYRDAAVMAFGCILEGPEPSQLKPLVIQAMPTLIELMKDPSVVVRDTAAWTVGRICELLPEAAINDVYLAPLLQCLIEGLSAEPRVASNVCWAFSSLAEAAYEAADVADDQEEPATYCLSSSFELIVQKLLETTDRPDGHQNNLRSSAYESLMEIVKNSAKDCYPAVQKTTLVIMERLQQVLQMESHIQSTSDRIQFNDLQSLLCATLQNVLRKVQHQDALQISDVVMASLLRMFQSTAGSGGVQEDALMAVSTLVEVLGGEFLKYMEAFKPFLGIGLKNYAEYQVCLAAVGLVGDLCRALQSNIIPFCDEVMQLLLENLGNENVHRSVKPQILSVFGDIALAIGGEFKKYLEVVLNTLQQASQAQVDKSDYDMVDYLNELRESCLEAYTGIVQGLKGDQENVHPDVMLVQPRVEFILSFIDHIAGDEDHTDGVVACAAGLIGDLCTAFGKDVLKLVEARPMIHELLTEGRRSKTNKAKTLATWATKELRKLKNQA
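FRET biosensor (snurportin 1 IBB flanked by EYFP and cerulean), 50 nM, with compound 5 min, then 0.125 microM importin beta in PBS, 1 mM DTT, 0.02% Tween-20, 0.1% BSA. CFP/YFP ratio read after 45 min at room temperature; pre-read flags interference.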
miR-21 reporter = miR-21 reporter, rising signal | HeLa miR-21 FLuc reporter, luciferase, 48 h | Potency, µM (highest dose often 38.3 µM), for the others: at the highest dose reporter change, positive = more light | 340,000 tested, under 10 active; active = well fitted rising curve with a large enough effect; inconclusive = small, poorly fitted or top-dose-only effect; inactive = no such curve, though single readings can be large or run the other way;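 also: % of control where 0% means no effect; miR-21 action dims this reporter so a rising signal means less miR-21 action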
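Compounds were titrated across several concentrations (up to approximately 40 uM) and incubated 48 hours with HeLa miR-21-FLuc reporter cells (miR-21 target sequence downstream of FLuc, endogenous miR-21). Readout was firefly luciferase luminescence after lytic detection reagent.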
GLA inh pH 4.5 = blocks human alpha-galactosidase A at pH 4.5; 230,000 tested, under 10 active; AID 1467; purified enzyme, 4-MU-alpha-Gal fluorescence, pH 4.5; activity change, negative = inhibition, % at 105 µM; inconclusive = small, poorly fitted or top-dose-only inhibition, or a rising curve; inactive = flat fitted curve, though single readings scatter; no compound was filed as active;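 also: 0% = full activity with enzyme and -100% = basal without enzyme; dose as in the result columns while the protocol names 77 µM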
Rango dissoc inh = prevents RanGTP from dissociating the Rango-importin beta complex; O95149+P62826; Biochemical FRET Rango-importin beta, RanGTP-induced dissociation; Potency, µM (top dose mostly 46.1 µM), without a hit: at the highest dose activity change, negative = inhibition; hit rate 0.071% among 340,000; active means falling FRET ratio curve, often poorly fitted, with flat reads before Ran was added; inconclusive means other falling curves, or compound fluorescence or quenching; inactive means flat or rising ratio curve;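 also: potency is read from the fitted curve at half-maximal effect; % of control where 0% means no effect; nearly all actives have a fitted effect of over 45% in size; -100% = wells without RanGTP and RCC1; the record marks most hits as doubtful in a second field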
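Compounds preincubate 5 min with complex of recombinant Rango and importin beta in PBS with 1 mM DTT. Ran (0.6 uM) loaded with 2 mM GTP plus 0.2 uM RCC1 starts dissociation; FRET is recorded 45 min later.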
* = called active by the depositor; ? = inconclusive; · = not tested or not shown; & = joins results of further samples; [ ] = dose if it differs, or a comment.

SMILES	Rango dissoc inh	Rango complex inh	miR-21 reporter	GLA inh pH 4.5
CCOc1ccc(C(=O)Nc2cc(OC)ccc2OC)cc1	11%	1.0%	-27%	-2
N#CC1(NC(=O)Cn2ncc(Cl)c(Cl)c2=O)CCCCC1	10%	0.5%	·	·
CNC(=S)Nc1cccc2[nH]ncc12	-4%	0.1%	-3%	1
COC(=O)COc1ccc(S(=O)(=O)N2CCc3ccccc3C2)cc1C	-4%	-1.4%	-1%	-6
CCOc1ccccc1N1CC(C(=O)NCCc2ccc(S(N)(=O)=O)cc2)CC1=O (configuration not stated)	0%	10%	-7%	-2
O=C(Nc1ccccc1[N+](=O)[O-])c1ccc(S(=O)(=O)N2CCCC2)cc1	1%	-3.4%	-9%	·
C[C@H](CO)N1C[C@H](C)[C@@H](CN(C)S(=O)(=O)c2ccccc2)Oc2ccc(NC(=O)Cc3ccccc3)cc2C1=O	4%	5.6%	·	·
O=C(CCCCCBr)N1CCC(CC2CC(c3cccc(Br)c3)=NO2)(C(=O)NCC2CCCCC2)CC1 (configuration not stated)	-9%	5.7%	22%	·
COC(=O)c1sc(Nc2ccccc2)nc1C	-3%	0.5%	-43%	-1
Cc1oc2c(C)c(O)ccc2c(=O)c1-c1nncn1-c1ccccc1	?	?	-1%	2
Nc1ccc(N2CCCCC2)c2nonc12	-17%	0.8%	-2%	4
Cc1sc2nc(SCC(=O)N3CCN(CCO)CC3)n(-c3ccccc3)c(=O)c2c1C	-18%	0.0%	0%	-5
COc1cc(C(=O)N(CCc2ccccc2)C2=CC3CCC(C2)N3C)cc(OC)c1OC (configuration not stated)	23%	-0.9%	-3%	4
CC(=O)Nc1ccc(NC(=O)COC(=O)c2cc(S(=O)(=O)N(C)C)ccc2N2CCCC2)cc1	16%	0.2%	·	·
Cc1nc2oc3ccc(Cl)cc3c(=O)c2cc1C(=O)O	-16%	?	-19%	·
Cc1ccc(NC(=O)c2cn(CCC#N)nc2-c2cccs2)c([N+](=O)[O-])c1	0%	7.5%	-9%	2
O=C(OCC1OC(n2ccc(=O)[nH]c2=O)C2OC12)c1ccccc1 (configuration not stated)	0%	-4.4%	·	·
CN1CCN(c2ccccc2NC(=O)c2cc3c(s2)-c2ccccc2OC3)CC1	-12%	-0.1%	20%	-17
CCOc1cc2[nH]c(=S)n(CC3CCCO3)c(=O)c2cc1OCC (configuration not stated)	3%	-1.0%	-2%	2
Cn1nnc2cc(C(=O)N3CCN(c4ccccc4)CC3)ccc21	3%	-2.4%	-7%	-14
O=C(CCC(=O)Nc1ccc(F)cc1)N/N=C/c1ccccc1O	-1%	1.8%	-32%	-12
Cc1c(NC(=O)C(C)OC(=O)c2cccc([N+](=O)[O-])c2)c(=O)n(-c2ccccc2)n1C (configuration not stated)	1%	5.9%	0%	-4
Cn1c(Cn2c(=O)sc3ccccc32)nnc1SCC(=O)NC1CCCCC1	34%	9.6%	-5%	3
CC(C(=O)NC1CCCC1)N1CCN(Cc2ccccc2)CC1 (configuration not stated)	-22%	-1.5%	-3%	7
CN(C)S(=O)(=O)c1ccc(NC(=O)COc2ncnc3c2cnn3-c2ccccc2)cc1	-10%	-0.8%	3%	-9

SMILES	Rango dissoc inh	Rango complex inh	miR-21 reporter	GLA inh pH 4.5
Cc1cc(C(=O)OCC(=O)N2C(C)CCCC2C)c2ccccc2n1 (configuration not stated)	-16%	-0.1%	·	·
COc1ccc(CCNC(=S)N2CCN(S(=O)(=O)c3ccccc3)CC2)cc1	-5%	-4.8%	·	·
CCN(Cc1ccccc1)S(=O)(=O)c1ccc(C(=O)N2CCN(c3nc4ccccc4s3)CC2)cc1	?	2.5%	-8%	-1
c1ccc(CNC2=NCCC2)nc1	-9%	2.3%	-1%	5
COC(=O)c1c(NC(=O)CSc2nnnn2-c2ccccc2)sc2c1CCC(C(C)(C)C)C2 (configuration not stated)	-5%	-0.2%	-1%	5
CN(c1ccccc1)c1nc(N2CCCC2)nc(-n2ccnc2)n1	-4%	0.2%	15%	-5
CCC(=O)c1ccc(OCC(=O)OCC(=O)N2CCN(c3ccc(OC)cc3)CC2)cc1	7%	8.3%	·	·
COc1ccc(NC(=O)CCOc2ccccc2C)cc1S(=O)(=O)N1CCCCC1	7%	-0.3%	·	·
O=[N+]([O-])c1cc(Cl)ccc1N1CCN(c2cccc(C(F)(F)F)c2)CC1	-7%	1.2%	0%	-11
COc1ccc(S(=O)(=O)N2CCN3CCCC3C2)cc1 (configuration not stated)	20%	-0.6%	1%	·
COc1ccc(/C=N/NC(=O)Cn2cnc3c2c(=O)n(C)c(=O)n3C)c(OC)c1OC	15%	0.0%	3%	5
Cc1ccc(S(=O)(=O)NNC(=O)Cc2cccn2C)cc1	17%	?	0%	-26
O=C(CCN1C(=O)c2ccc([N+](=O)[O-])cc2C1=O)Nc1nccs1	-7%	-1.9%	-1%	-4
CN1CCCC(C(=O)C(C#N)c2ccccc2)C1 (configuration not stated)	-16%	?	-3%	6
COc1cc(NC(=O)c2ccccc2)ccc1NC(=O)c1cc2ccccc2o1	-8%	-2.9%	3%&-18%	·
NC(=O)c1cc2c(s1)-c1cc(Cl)ccc1SC2	-26%	?	-13%	5
Cc1ccc2[nH]c(=O)c(CN(CCO)Cc3nnnn3CCc3ccccc3)cc2c1	-9%	?	-7%	-5
CCCCn1c(SCC(=O)N2CCc3ccccc32)nnc1-c1ccncc1	26%	0.0%	-3%	3
CC(C)Cc1nnc(NC(=O)Cc2ccccc2[N+](=O)[O-])s1	0%	3.3%	-27%	3
Cc1ccc(NC(=O)CCCSc2ccccc2)cc1S(=O)(=O)N1CCOCC1	-10%	-0.1%	14%	?
O=C(NCc1cccnc1)C(C(=O)c1ccc(F)cc1)n1ccccc1=O (configuration not stated)	-3%	4.4%	-30%	-3
Cc1ccc2oc(-c3ccccc3)c(C(=O)O)c(=O)c2c1	1%	0.0%	5%	5
CC(Oc1ccc(Cl)cc1Cl)c1nc(-c2ccc(NC(=O)c3cccnc3)cc2)no1 (configuration not stated)	-19%	0.4%	29%	-16
COc1ccc2nc(N3C(=O)C(O)=C(C(=O)c4ccco4)C3c3ccc(C)o3)sc2c1 (configuration not stated)	?	?	·	·
Cc1cc(OCC(=O)N(C(C)C)C(C)C)ccc1Cl	-2%	1.4%	0%	-6

Single records, as listed above. Screens in order: Rango dissoc inh	Rango complex inh	miR-21 reporter	GLA inh pH 4.5
Record of COc1ccc(NC(=O)CCOc2ccccc2C)cc1S(=O)(=O)N1CCCCC1 = 7%	-0.3%	·	·
Record of COc1ccc(CCNC(=S)N2CCN(S(=O)(=O)c3ccccc3)CC2)cc1 = -5%	-4.8%	·	·

More structures
SMILES	Rango dissoc inh	Rango complex inh	miR-21 reporter	GLA inh pH 4.5
Cc1ccc2cc(CNC(C)C)c(=O)[nH]c2c1	-5%	-2.1%	-1%	7
Cc1ccc(C2=NS(=O)(=O)N(C)C(C(=O)N3CCCCC3)=C2)cc1	1%	3.0%	1%	·
CNS(=O)(=O)c1cccc(C(=O)OCC(=O)c2cc(C)n(-c3ccc4c(c3)OCO4)c2C)c1	-5%	-4.9%	-9%	-3
CC(C)Oc1ccc(S(=O)(=O)N2CCCCC2)cc1NC(=O)CN1C(=O)NC(C)(C2CC2)C1=O (configuration not stated)	5%	1.1%	·	·
C=CCn1c(=O)[nH]c2cc(C(=O)N3CCN(c4cccc(Cl)c4)CC3)ccc2c1=O	6%	-2.8%	13%	-4
COc1ccc(C(=O)N2CCN(CCCc3ccccc3)CC2)cc1OC	-10%	5.1%	-1%	·
COC(=O)c1ccc(C(=O)Nc2ccc(N)cc2N)cc1	-17%	3.9%	-7%	0
O=C(NC1CCS(=O)(=O)C1)Oc1ccccc1 (configuration not stated)	-24%	2.8%	-2%	15
Cc1cc(C)c(OCC(=O)Nc2ccccc2N2CCCCC2)c(C)c1	0%	-0.3%	·	·
Cc1ccc(NC(=O)CCC(=O)n2nc(C)cc2C)c(C)c1	17%	0.7%	0%	5
O=C(NCC(c1cccs1)N1CCOCC1)c1ccc([N+](=O)[O-])cc1 (configuration not stated)	-11%	-1.0%	15%	-4
COC(=O)c1ccccc1NS(=O)(=O)c1ccc2[nH]c(=O)[nH]c2c1	-16%	-1.0%	-3%	2
O=C1CN(C(=O)NCC(=O)N[C@H](Cc2ccccc2)C(=O)O)c2ccccc2N1	16%	-1.8%	-1%	·
O=C(C1CCCN(S(=O)(=O)c2cc(Cl)ccc2Cl)C1)N1CCOCC1 (configuration not stated)	-6%	-1.0%	1%	·
COc1cc2c(cc1OC)C(c1cccs1)N(C(=S)NC(C)C)CC2 (configuration not stated)	-4%	0.6%	4%	0
Cc1ccc(CNC(=O)CCNS(=O)(=O)c2ccc(Br)s2)cc1	5%	-3.5%	-1%	1[21.1 µM]
Cc1ncc(CO)c2cc(S(=O)(=O)c3ccc(F)cc3)c(=O)oc12	-8%	4.1%	-1%	-2
COc1ccccc1/C=C/C=N/n1c(C2CCCCC2)n[nH]c1=S	19%	5.9%	-18%	4
N#CC1=C(N)N(c2ccccc2)C2=C(C(=O)CCC2)C1c1cccs1 (configuration not stated)	4%	0.0%	-11%	3
COC(=O)c1ccc2c(c1)S(=O)(=O)NC(=NCCCN1CCOCC1)S2	9%	0.5%	-1%	4
Cc1ccc(F)c(Cn2cnc3c(cnn3C(C)(C)C)c2=O)c1Cl	-8%	-1.6%	·	·
CCCN1CCC(N2CCN(c3ccccc3OC)CC2)CC1	·	·	-3%	-1
COc1cc(C(C)=O)ccc1Oc1ncccn1	14%	-3.0%	0%	·
CC(C)Cc1cc(C(=O)Nc2ccc3c(c2)OCO3)no1	0%	-1.1%	-29%	5
Cc1ncc([N+](=O)[O-])n1CCOC(=O)c1ccc(Cl)cc1Cl	0%	-4.0%	-9%	6

SMILES	Rango dissoc inh	Rango complex inh	miR-21 reporter	GLA inh pH 4.5
O=C(CSc1nc2ccccc2c(=O)n1CCCN1CCOCC1)c1c[nH]c2ccccc12	5%	2.0%	11%	-5
COc1ccc(-c2cccc(C3CC=CC4C3C(=O)N(Cc3ccccc3)C4c3ccc(OC)c(Cl)c3)c2)cc1 (configuration not stated)	1%	1.3%	?	-5
O=[N+]([O-])c1cnccc1Nc1cccc(F)c1	1%	2.4%	0%	-10
Cc1ccccc1NS(=O)(=O)c1ccc(C(=O)N2CCCCCCC2)cc1	-1%	-1.1%	·	·
Cc1ccc(C)c(OCCCNC2CCCC2)c1C	-18%	3.6%	-10%	-3
O=C(N/N=C/c1ccco1)/C(=C/c1cccc([N+](=O)[O-])c1)NC(=O)c1ccccc1	-22%	-2.3%	-3%	-3
Cc1ccc(CN2CCNC(=O)C2CC(=O)N(C)C(C2CC2)C2CC2)o1 (configuration not stated)	-30%	-2.9%	0%	5
COc1ccc(S(=O)(=O)NC2CCCC2)cc1Cl	14%	5.0%	-9%	·
COc1cc(C(=O)NC2(C(F)(F)F)NC(=O)N(CCCc3ccccc3)C2=O)cc(OC)c1OC (configuration not stated)	2%	4.6%	4%	-9
COC(=O)C1(CO)NC(c2cccs2)C2C(=O)N(c3ccccc3)C(=O)C21 (configuration not stated)	-8%	-0.3%	-2%	-7
CCOC(=O)C1CCN(C(=S)Nc2ccc(S(N)(=O)=O)cc2)CC1	5%	1.5%	-3%	4
CCOC(=O)c1c(NC(=O)Cn2nc(C(=O)O)c3ccccc3c2=O)sc2c1CCC(C)C2 (configuration not stated)	2%	1.1%	-3%	7
CC1(CCc2ccc(O)cc2)NC(=O)NC1=O (configuration not stated)	-13%	1.4%	-1%	1
COc1cc(C(=O)COC(=O)c2cc([N+](=O)[O-])ccc2N2CCOCC2)ccc1OC(F)F	-1%	?	·	·

Screens as filed in PubChem.

An excerpt, so the mix of outcomes need not match the whole.
